Bioassay records (PubChem BioAssay)
Cruzain inh noDet – qHTS Assay for Promiscuous and Specific Inhibitors of Cruzain (without detergent). actives 2.3% (n = 200,000). Potency, µM, for inactives: max response, negative = inhibition, most hits filed as inhibitors. purified cruzain, Z-FR-AMC fluorescence, no detergent. Cruzipain (Trypanosoma cruzi), P25779. AID 1476, 2009; active = well fitted curve in the direction sought with a large enough effect; inconclusive = small, poorly fitted or top-dose-only effect, or another doubt; inactive = no such curve, though single readings can be large; an effect the other way counts as inactive or inconclusive;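 note: plate controls were enzyme without inhibitor for no effect and buffer without enzyme for full effect; nearly all actives have a fitted effect of over 40% in size; top concentration of the series not given in the record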
Target sequence (P25779 123-467 limits assumed): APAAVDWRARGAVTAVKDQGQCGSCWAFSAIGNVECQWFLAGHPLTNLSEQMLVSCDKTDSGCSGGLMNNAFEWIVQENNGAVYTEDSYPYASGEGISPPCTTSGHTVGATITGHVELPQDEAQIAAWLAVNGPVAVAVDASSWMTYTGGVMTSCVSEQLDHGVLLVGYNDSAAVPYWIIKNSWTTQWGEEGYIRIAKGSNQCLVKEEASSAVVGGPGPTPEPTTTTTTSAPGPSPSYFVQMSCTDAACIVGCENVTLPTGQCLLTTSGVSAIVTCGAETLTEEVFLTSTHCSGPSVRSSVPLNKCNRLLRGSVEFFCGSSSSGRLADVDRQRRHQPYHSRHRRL
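Purified cruzain at 1.5 nM, pre-incubated 15 min with compound at room temperature in 100 mM sodium acetate pH 5.5, 5 mM DTT, 0.00005% Triton X-100. Reaction started with 2 uM Z-FR-AMC; AMC fluorescence increase over 60 s gives rate.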
NS1 inh – qHTS Assay for Inhibitors of Influenza NS1 Protein Function; S. cerevisiae slowed by influenza A NS1, growth recovery by OD600; Potency, µM (doses to about 46.1 µM), without a hit: at the top dose activity, positive = more growth; actives 0.4% (n = 270,000); AID 2326, 2010; note: actives are rising curves; nearly all actives have a fitted effect of over 50% in size
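A cell-based growth assay was used: compounds that relieve NS1-induced slow growth of budding yeast raise OD600. Assay medium was yeast nitrogen base with ammonium sulphate and -URA supplement, pH 6.0, with 2% galactose.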
SARS PLpro yeast – qHTS of Yeast-based Assay for SARS-CoV PLP | Potency, µM (doses to about 32.9 µM), inactives show at the highest dose activity, positive = growth rescue | S. cerevisiae expressing SARS-CoV PLpro, growth rescue; control for the full effect not named in the record | actives 0.19% (n = 330,000); note: 0% is about no effect; nearly all actives have a fitted effect of over 55% in size; growth read by luminescence after 48 h
2A StopGo – High Throughput Screening for Foot and Mouth Disease Virus Antivirals | human cells with a luciferase reporter of 2A StopGo recoding; control for the full effect not named in the record | AID 1159524, 2015 | actives 1.2% (n = 410,000) | Potency, µM (titrated, usually from 57.9 µM), without a hit: at the highest dose signal change, negative = less light; active = well fitted falling curve with a large enough effect; inconclusive = small, poorly fitted or top-dose-only effect; inactive = no such curve, though single readings can be large or run the other way; tested in HEK293T cells; note: % is set by controls: 0 for no effect and ±100 for the full control effect; nearly all actives have a fitted effect of over 45% in size; luciferase light after 4 h
Cruzain Triton – qHTS Assay for Promiscuous and Specific Inhibitors of Cruzain (with detergent) | Cruzipain (Trypanosoma cruzi), P25779 | Potency, µM, inactives show max response, negative = inhibition, most hits filed as inhibitors | purified cruzain, Z-FR-AMC fluorescence, 0.01% Triton | AID 1478, 2009 | actives 0.43% (n = 200,000); active = well fitted curve in the direction sought with a large enough effect; inconclusive = small, poorly fitted or top-dose-only effect, or another doubt; inactive = no such curve, though single readings can be large; an effect the other way counts as inactive or inconclusive;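 note: plate controls were neutral wells for no effect and buffer without enzyme for full effect; nearly all actives have a fitted effect of over 40% in size; top concentration of the series not given in the record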
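Cysteine protease activity tested under reducing, mildly acidic conditions (100 mM sodium acetate pH 5.5, 5 mM DTT) plus 0.01% Triton X-100. Cruzain 1.5 nM; substrate Z-FR-AMC 2 uM; 15 min compound preincubation at room temperature.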
MARV entry inh – qHTS for inhibitors of binding or entry into cells for Marburg Virus. Marburg virus pseudotyped entry inhibition, cell reporter; control for the full effect not named in the record; about a third of the inactives were read at about 46 µM. Potency, µM (doses to about 37.8 µM), without a hit: top-dose activity change, negative = inhibition, hits mostly inhibitors. actives 1.8% (n = 300,000). AID 540276, 2011; active = well fitted inhibition curve with a large enough effect; inconclusive = small, poorly fitted or top-dose-only effect, or effect the other way; inactive = flat fitted curve, though single readings scatter; tested in HEK293 cells; about a fifth of its hits are not listed in these tables; note: % is set by controls: 0 for no effect and ±100 for the full control effect; luciferase read-out
RE007 growth inh – qHTS Assay for Inhibitors of the HIV-1 protein Vpr; Potency, µM (highest dose often 92.2 µM), inactives show at the top dose activity change, negative = less growth; AID 651644, 2012; actives 0.21% (n = 360,000); S. pombe RE007 Vpr strain, BacTiter-Glo ATP luminescence, 24 h; control for the full effect not named in the record; active = well fitted falling curve with a large enough effect; inconclusive = small, poorly fitted or top-dose-only effect; inactive = no such curve, though single readings can be large or run the other way;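 note: % is set by controls: 0 for no effect and ±100 for the full control effect; nearly all actives have a fitted effect of over 50% in size; the assay follows cell death caused by Vpr and the record does not say whether a fall means rescue or toxicity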
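Fission yeast RE007 carrying one integrated HIV-1 vpr copy, seeded at OD 0.01 in PMG+AL medium with 23 nL pinned compound. Grown 24 h at 30 degrees; viability read by BacTiter-Glo luminescence after 5 min.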
Lassa entry inh – qHTS for Inhibitors of binding or entry into cells for Lassa Virus; AID 540256, 2011; Potency, µM (titrated, usually from 37.9 µM), for inactives: top-dose activity change, negative = inhibition, hits mostly inhibitors; Lassa virus pseudotype entry inhibition, cell reporter; control for the full effect not named in the record; actives 1.2% (n = 300,000); active means well fitted inhibition curve with a large enough effect; inconclusive means small, poorly fitted or top-dose-only effect, or effect the other way; inactive means flat fitted curve, though single readings scatter; tested in HEK293 cells; note: % is set by controls: 0 for no effect and ±100 for the full control effect; nearly all actives have a fitted effect of over 50% in size; luciferase read-out
Starred values were filed as active, the others as inactive; [ ] = another dose, or the depositor's remark. Unless noted, calls come from the whole dose curve; as a rule, active means well fitted rising curve with a large enough effect; inconclusive means small, poorly fitted or top-dose-only effect; inactive means no such curve, though single readings can be large or run the other way. Potency is the fitted concentration of half-maximal effect. No enrichment for hits (roughly 4.7% active in at least one column).

`CC(C)(C)c1ccc(/C=C/C(=O)N2CCCCC2)cc1` gave NS1 inh -33%, SARS PLpro yeast -3%, 2A StopGo 31%[activator] and RE007 growth inh 8%.
Cc1ccc(N2CC(C(=O)NC3=NCCS3)CC2=O)cc1 (centres undefined) was read as Cruzain inh noDet -10%, NS1 inh 0%, SARS PLpro yeast 14%, 2A StopGo 2%, Cruzain Triton 3.4%, MARV entry inh inconclusive, RE007 growth inh -7% and Lassa entry inh -2%.
For CCOC(=O)[C@@H]1[C@H]2COc3ccccc3[C@H]2N2C(=O)N(c3ccc(Cl)cc3)C(=O)[C@@]12C the results were NS1 inh -31%, SARS PLpro yeast -7%, 2A StopGo -22% and RE007 growth inh 12%.
`CCCCNC(=O)c1cc(-c2ccc(OC)c(OC)c2)on1` gave Cruzain inh noDet 21%, NS1 inh -52%, SARS PLpro yeast 1%, 2A StopGo 24%, Cruzain Triton 1.7% and RE007 growth inh 8%.
CCOC(=O)c1nc(-c2ccccc2)sc1C(C)=O was read as NS1 inh 0%, SARS PLpro yeast 0%, 2A StopGo 9%, MARV entry inh 4%, RE007 growth inh -3% and Lassa entry inh 12%.
Screening COc1ccc(OCC(=O)NNC(=S)NC(=O)c2ccc([N+](=O)[O-])cc2)cc1 returned NS1 inh -3%, SARS PLpro yeast -12%, 2A StopGo -5%, MARV entry inh 2%[46.1 µM], RE007 growth inh 16% and Lassa entry inh 14%[46.1 µM].
For CCc1ccccc1NC(=O)Cn1c2ncccc2c(=O)n1-c1ccccc1 the results were Cruzain inh noDet 1%, 2A StopGo -9%, Cruzain Triton -1.1% and Lassa entry inh 0%[46.1 µM].
COc1ccc(CCNC(=O)c2cc3c(=O)n4cccc(C)c4nc3n(CC3CCCO3)c2=N)cc1 (centres undefined) was read as NS1 inh 14%, SARS PLpro yeast -6%, 2A StopGo -21%, MARV entry inh inconclusive, RE007 growth inh -4% and Lassa entry inh 16%[46.1 µM].
Screening CCCn1c2ccccc2c2cnn(CC(=O)NC3CCCC(C)C3C)c(=O)c21 (centres undefined) returned NS1 inh 10%, SARS PLpro yeast 0%, 2A StopGo 2% and RE007 growth inh 0%.
`CSCC[C@H](NC(=O)NCCC1=CCCCC1)C(=O)O` gave Cruzain inh noDet 12%, NS1 inh 1%, SARS PLpro yeast 7%, 2A StopGo 0%, Cruzain Triton 0.4%, MARV entry inh -8%, RE007 growth inh 15% and Lassa entry inh 0%.
For Cc1ccc(S(=O)(=O)N(CC(=O)Nc2ccccc2C(=O)O)c2ccccc2)cc1 the results were NS1 inh 9%, SARS PLpro yeast 1%, 2A StopGo 6%, MARV entry inh 4%[46.1 µM], RE007 growth inh 0% and Lassa entry inh 0%[46.1 µM].
CCOC(=O)C1=C(C)NC2=C(C(=O)OC2)C1c1ccccc1 (centres undefined) was read as NS1 inh -3%, SARS PLpro yeast -1%, 2A StopGo -7%, MARV entry inh inconclusive, RE007 growth inh -3% and Lassa entry inh -18%[46.1 µM].

Four compounds drawn at random from those above:
`CSCC[C@H](NC(=O)NCCC1=CCCCC1)C(=O)O` gave Cruzain inh noDet 12%, NS1 inh 1%, SARS PLpro yeast 7%, 2A StopGo 0%, Cruzain Triton 0.4%, MARV entry inh -8%, RE007 growth inh 15% and Lassa entry inh 0%.
For Cc1ccc(S(=O)(=O)N(CC(=O)Nc2ccccc2C(=O)O)c2ccccc2)cc1 the results were NS1 inh 9%, SARS PLpro yeast 1%, 2A StopGo 6%, MARV entry inh 4%[46.1 µM], RE007 growth inh 0% and Lassa entry inh 0%[46.1 µM].
Cc1ccc(N2CC(C(=O)NC3=NCCS3)CC2=O)cc1 (centres undefined) was read as Cruzain inh noDet -10%, NS1 inh 0%, SARS PLpro yeast 14%, 2A StopGo 2%, Cruzain Triton 3.4%, MARV entry inh inconclusive, RE007 growth inh -7% and Lassa entry inh -2%.
`CCCCNC(=O)c1cc(-c2ccc(OC)c(OC)c2)on1` gave Cruzain inh noDet 21%, NS1 inh -52%, SARS PLpro yeast 1%, 2A StopGo 24%, Cruzain Triton 1.7% and RE007 growth inh 8%.

Further records:
O=C(c1cccc(NS(=O)(=O)c2ccccc2)c1)N1CCCCC1 was read as SARS PLpro yeast 1%, 2A StopGo 10%, MARV entry inh 4%[46.1 µM], RE007 growth inh -1% and Lassa entry inh 12%.
For O=C(CN1C(=O)NC2(CCc3ccccc3C2)C1=O)Nc1ccc(F)cc1 (centres undefined) the results were Cruzain inh noDet -4%, NS1 inh 5%, SARS PLpro yeast 25%, 2A StopGo 0%, Cruzain Triton -2.5%, MARV entry inh inconclusive and Lassa entry inh 1%.
`CC1Cc2cc(S(=O)(=O)N3CCC(C(=O)N(C)Cc4ccco4)CC3)ccc2N1C(=O)C1CCC1` (centres undefined) gave NS1 inh -8%, SARS PLpro yeast -5%, 2A StopGo -23% and RE007 growth inh -17%.
Screening CCOC(=O)C(NC(=O)c1ccccc1)(OCC1(CC)COC1)C(F)(F)F (centres undefined) returned Cruzain inh noDet 16%, NS1 inh -1%, SARS PLpro yeast 4%, 2A StopGo -16%, Cruzain Triton -0.3%, MARV entry inh -12%, RE007 growth inh -13% and Lassa entry inh -4%.
Screening O=C(CNc1ccc(F)cc1)N/N=C1\CCCc2ccccc21 returned NS1 inh -3%, SARS PLpro yeast 0%, 2A StopGo -7%, MARV entry inh -12%[46.1 µM], RE007 growth inh 0% and Lassa entry inh -28%.
CCOc1ccc(CCNC(=O)c2cnccn2)cc1OCC was read as NS1 inh -4%, SARS PLpro yeast -4%, 2A StopGo -3%, MARV entry inh 3%[46.1 µM], RE007 growth inh 4% and Lassa entry inh 5%.
`Cc1ccccc1COc1ccc(/C(O)=C2/C(=O)C(=O)N(CCCn3ccnc3)C2c2ccco2)cc1` (centres undefined) gave Cruzain inh noDet inconclusive, NS1 inh -17%, SARS PLpro yeast -5%, 2A StopGo 39%[activator], Cruzain Triton 2.1%, MARV entry inh 21%, RE007 growth inh 6% and Lassa entry inh 5%.
Screening Cc1noc(C)c1C(=O)Nc1sc(C)c(-c2ccccc2)c1C#N returned Cruzain inh noDet 1%, NS1 inh -122%, SARS PLpro yeast 0%, 2A StopGo 28µM*, Cruzain Triton -1.4%, MARV entry inh -1%, RE007 growth inh -7% and Lassa entry inh 14%.
Screening Cn1c(NC(=O)c2ccccc2C(F)(F)F)cc(=O)n(C)c1=O returned Cruzain inh noDet 2%, NS1 inh -7%, SARS PLpro yeast 13%, 2A StopGo -18%, Cruzain Triton 0.3% and RE007 growth inh 5%.
C=CCNC(=S)NNc1nc2c(c(=O)[nH]1)C1(CCCCC1)Cc1ccccc1-2 was read as Cruzain inh noDet 2%, NS1 inh 22%, SARS PLpro yeast 9%, 2A StopGo inconclusive, Cruzain Triton -14% and RE007 growth inh 18%.
CC(Nc1cc(N2CCCC2)ccc1[N+](=O)[O-])c1ccccc1 (centres undefined) was read as Cruzain inh noDet -24%, NS1 inh 4%, SARS PLpro yeast 0%, 2A StopGo -18%, Cruzain Triton -0.3%, MARV entry inh -5%, RE007 growth inh 3% and Lassa entry inh 11%.
Screening O=C1C(CCCNC(=S)NCc2ccccc2)NC(=S)N1Cc1ccccc1 (centres undefined) returned Cruzain inh noDet 4%, NS1 inh 29%, SARS PLpro yeast 11%, 2A StopGo 4%, Cruzain Triton -6.3%, MARV entry inh 11%, RE007 growth inh 4% and Lassa entry inh 17%.
CCn1nc(C)c(CNC(=O)C2CCC(=O)N(CCc3ccc(OC)cc3)C2)c1C (centres undefined) was read as NS1 inh inconclusive, SARS PLpro yeast 7%, 2A StopGo -14% and RE007 growth inh 4%.
For Cc1ccccc1C(=O)NC1CCCN(Cc2ccccc2F)C1 (centres undefined) the results were NS1 inh -4%, SARS PLpro yeast -6%, 2A StopGo -4% and RE007 growth inh -9%.
Screening COc1cccc(NC(=O)COC(=O)c2sccc2C)c1 returned SARS PLpro yeast -4%, 2A StopGo 63%[activator], MARV entry inh 9%, RE007 growth inh -3% and Lassa entry inh 14%.
`CC(=O)NC(Cc1cccc(F)c1)C(=O)NC1CCN(C(=O)c2cccc(C)c2)CC1` (centres undefined) gave NS1 inh -5%, SARS PLpro yeast -1%, 2A StopGo 9% and RE007 growth inh 12%.
`CCCCC(=O)NC(Nc1sc2c(c1C(N)=O)CCCC2)(C(=O)OCC)C(F)(F)F` (centres undefined) gave Cruzain inh noDet -9%, NS1 inh -2%, SARS PLpro yeast 8%, 2A StopGo -26%, Cruzain Triton -1.4%, MARV entry inh -8%, RE007 growth inh 4% and Lassa entry inh 2%.
O=C(O)CCc1ccc(S(=O)(=O)N2CCOCC2)cc1 was read as Cruzain inh noDet -4%, NS1 inh 9%, SARS PLpro yeast 2%, 2A StopGo 9%, Cruzain Triton 7.4%, MARV entry inh -3%, RE007 growth inh 7% and Lassa entry inh 0%.
Screening CCc1cccc2[nH]c3cc([N+](=O)[O-])ccc3c12 returned NS1 inh -5%, SARS PLpro yeast 0%, 2A StopGo -15%, MARV entry inh -25%[46.1 µM], RE007 growth inh 0% and Lassa entry inh 10%[46.1 µM].
Screening O=C(COC(=O)C1(c2ccc(F)cc2)CCCC1)Nc1ncc(C(F)(F)F)cc1Cl returned Cruzain inh noDet 12%, NS1 inh -4%, SARS PLpro yeast -46%, 2A StopGo -33%, Cruzain Triton -11%, MARV entry inh -19%, RE007 growth inh -7% and Lassa entry inh inconclusive.
